Ecoli rRNA inh – inhibits bacterial ribosomal RNA function over humanized ribosomes; E. coli WT GFP vs humanized-ribosome RFP mutants, fluorescence, 24 h; stronger effect = lower value; DMSO median 0, no signal -100; GFP signal change (wild-type ribosome), % (concentration not given with the values); AID 720706; actives 1.6% (n = 350,000);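 active = significant combined selectivity score with lowered wild-type GFP, culture density cut under 30%, mutant RFP and density less affected; inactive = any of these conditions unmet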; note: one replicate is shown; some compounds called inactive have numbers as strong as hits
FGF22 binding – shifts melting point of recombinant human FGF22; Q9HCT0; recombinant FGF22 thermal shift, SYPRO orange fluorescence; percent of sucrose octasulfate shift, DMSO zero; calls only at 9.99 µM; actives 1.5% (n = 340,000); AID 651658;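 active = melting point raised past a set limit in the mean and every replicate; three in four hits are not shown here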
Target sequence (Q9HCT0 whole entry, looked up): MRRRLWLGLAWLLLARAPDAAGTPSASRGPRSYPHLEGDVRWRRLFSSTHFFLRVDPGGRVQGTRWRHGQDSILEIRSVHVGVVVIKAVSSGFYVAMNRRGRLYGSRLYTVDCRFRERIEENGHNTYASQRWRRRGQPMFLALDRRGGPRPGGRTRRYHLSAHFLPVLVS
Ecoli rRNA inh OD600 – second read-out of Ecoli rRNA inh, no call of its own (marks repeat the call); OD600 change, %; measured here: OD600 growth;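 optical density of the mix in the first replicate; 0 = DMSO median and -100 = no signal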
Ecoli rRNA inh RFP – further read-out of Ecoli rRNA inh, marked with its call; RFP signal change, %; measured here: RFP humanized mutant strains;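 first replicate; 0 = DMSO median and -100 = no signal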
The depositor's hits bear a star; & = joins results of further samples. Only part of the results is shown. The share of hits here may be higher or lower than overall.

Screening C[C@@H]1CN([C@@H](C)CO)C(=O)c2cccc(NC(=O)c3cnccn3)c2O[C@H]1CN(C)Cc1ccc(-c2ccccc2)cc1 returned Ecoli rRNA inh -4, FGF22 binding inactive, Ecoli rRNA inh OD600 -17 and Ecoli rRNA inh RFP 3.9.
CN1CCN(C(=O)C[C@@H]2CC[C@@H](NS(=O)(=O)c3cccc(F)c3)[C@H](CO)O2)CC1 was read as Ecoli rRNA inh 0, FGF22 binding inactive, Ecoli rRNA inh OD600 6 and Ecoli rRNA inh RFP -1.4.
Cc1noc(C)c1NC(=O)N(C)C[C@@H]1Oc2ccc(NC(=O)C3CCCCC3)cc2C(=O)N([C@H](C)CO)C[C@H]1C was read as Ecoli rRNA inh 5, FGF22 binding inactive, Ecoli rRNA inh OD600 9 and Ecoli rRNA inh RFP -1.4.
For COc1ccc(NC(=O)Nc2ccc3c(c2)CC(=O)N([C@@H](C)CO)C[C@H](C)[C@H](CN(C)Cc2ccc4c(c2)OCO4)O3)cc1 the results were Ecoli rRNA inh -1, FGF22 binding inactive, Ecoli rRNA inh OD600 -4 and Ecoli rRNA inh RFP 15.
For CN(C)CC#Cc1ccc([C@H]2[C@@H](CO)N3CCCCN(S(=O)(=O)c4ccccc4)C[C@H]23)cc1 the results were Ecoli rRNA inh 1, FGF22 binding inactive, Ecoli rRNA inh OD600 2 and Ecoli rRNA inh RFP -0.9.
Screening CCCNC(=O)N1CC2(CCN(Cc3cccnc3)CC2)c2c(n(C)c3cc(OC)ccc23)[C@H]1CO returned Ecoli rRNA inh 2, FGF22 binding inactive, Ecoli rRNA inh OD600 15 and Ecoli rRNA inh RFP 0.2.
Screening C[C@@H]1CN([C@@H](C)CO)S(=O)(=O)c2ccc(C#Cc3cccc(F)c3)cc2O[C@@H]1CN(C)C(=O)CN1CCOCC1 returned Ecoli rRNA inh -1, FGF22 binding inactive, Ecoli rRNA inh OD600 -11 and Ecoli rRNA inh RFP 1.1.
`O=C(c1ccccn1)N1CC[C@@H]2[C@H]1c1cc(-c3cccc(F)c3)ccc1N[C@@H]2CO` gave Ecoli rRNA inh -6, FGF22 binding inactive, Ecoli rRNA inh OD600 -7 and Ecoli rRNA inh RFP -1.6.
COCC(=O)N(C)C[C@@H]1Oc2ncc(C#C[C@@H](C)O)cc2C(=O)N([C@H](C)CO)C[C@H]1C was read as Ecoli rRNA inh 7, FGF22 binding inactive, Ecoli rRNA inh OD600 8 and Ecoli rRNA inh RFP -1.3.
Screening C[C@@H]1CN([C@@H](C)CO)C(=O)Cc2cc(NS(=O)(=O)c3cn(C)cn3)ccc2O[C@H]1CN(C)S(=O)(=O)c1cccs1 returned Ecoli rRNA inh 2, FGF22 binding inactive, Ecoli rRNA inh OD600 12 and Ecoli rRNA inh RFP 1.0.
For COc1ccc(-c2ccc3c(c2)O[C@H](CN(C)Cc2cccnc2)[C@@H](C)CN([C@H](C)CO)S3(=O)=O)cc1 the results were Ecoli rRNA inh -8, FGF22 binding inactive, Ecoli rRNA inh OD600 -6 and Ecoli rRNA inh RFP 0.3.
For CCCNC(=O)N1CC2(CN(C(=O)CC)C2)c2c(n(C)c3cc(OC)ccc23)[C@@H]1CO the results were Ecoli rRNA inh 2, FGF22 binding inactive, Ecoli rRNA inh OD600 13 and Ecoli rRNA inh RFP 0.3.
C[C@H](O)C#Cc1ccc2c(c1)O[C@@H](CN(C)C(=O)Cc1ccccn1)[C@@H](C)CN([C@@H](C)CO)S2(=O)=O was read as Ecoli rRNA inh 5, FGF22 binding inactive, Ecoli rRNA inh OD600 11 and Ecoli rRNA inh RFP -0.9.
For COCC(=O)N(C)C[C@H]1Oc2ncc(C#CC3(O)CCCC3)cc2C(=O)N([C@@H](C)CO)C[C@@H]1C the results were Ecoli rRNA inh -2, FGF22 binding inactive, Ecoli rRNA inh OD600 14 and Ecoli rRNA inh RFP -2.1.
C[C@@H]1CN([C@@H](C)CO)C(=O)c2cc(-c3ccncc3)cnc2O[C@@H]1CN(C)C(=O)C1CCCCC1 was read as Ecoli rRNA inh 4, FGF22 binding inactive, Ecoli rRNA inh OD600 4 and Ecoli rRNA inh RFP -2.4.
Screening COc1ccc(S(=O)(=O)N(C)C[C@@H]2OCc3ccccc3-c3ccccc3C(=O)N([C@@H](C)CO)C[C@@H]2C)cc1 returned Ecoli rRNA inh -5, FGF22 binding inactive, Ecoli rRNA inh OD600 -8 and Ecoli rRNA inh RFP 2.3.
Screening CC(C)NC(=O)Nc1cccc2c1O[C@H](CN(C)Cc1ccccc1)[C@H](C)CN([C@@H](C)CO)C2=O returned Ecoli rRNA inh 4, FGF22 binding inactive, Ecoli rRNA inh OD600 5 and Ecoli rRNA inh RFP 0.8.
COCC(=O)NC[C@@H]1[C@H](c2ccccc2)[C@@H](CO)N1C(=O)c1ccccc1 was read as Ecoli rRNA inh 1, FGF22 binding inactive, Ecoli rRNA inh OD600 0 and Ecoli rRNA inh RFP -1.8.
`Cc1ccc(S(=O)(=O)N[C@H]2CC[C@@H](CC(=O)NCCc3ccncc3)O[C@H]2CO)cc1` gave Ecoli rRNA inh 1, FGF22 binding inactive, Ecoli rRNA inh OD600 -9 and Ecoli rRNA inh RFP -2.9.
COCCNC(=O)C[C@@H]1CC[C@@H]2[C@@H](COc3ccc(NC(=O)Cc4ccccc4)cc3C(=O)N2C)O1 was read as Ecoli rRNA inh -2, FGF22 binding inactive, Ecoli rRNA inh OD600 -3 and Ecoli rRNA inh RFP 0.1.
COc1ccc(CN(C)C[C@@H]2Oc3ccc(NS(=O)(=O)c4ccc(OC)cc4)cc3CC(=O)N([C@@H](C)CO)C[C@@H]2C)cc1 was read as Ecoli rRNA inh 3, FGF22 binding inactive, Ecoli rRNA inh OD600 -24 and Ecoli rRNA inh RFP 4.9.
`CO[C@@H]1CN(C)C(=O)c2cc(NC(=O)Cc3ccccc3)ccc2OC[C@@H](C)NC[C@@H]1C` gave Ecoli rRNA inh 2, FGF22 binding inactive, Ecoli rRNA inh OD600 2 and Ecoli rRNA inh RFP 0.2.
`O=C(C[C@H]1C[C@@H]2c3cc(NC(=O)C4CCC4)ccc3O[C@@H]2[C@@H](CO)O1)NCc1ccc2c(c1)OCO2` gave Ecoli rRNA inh -5, FGF22 binding inactive, Ecoli rRNA inh OD600 -2 and Ecoli rRNA inh RFP 0.3.
C[C@@H]1CN([C@H](C)CO)C(=O)c2cc(NS(=O)(=O)c3cccs3)ccc2O[C@@H](C)CCCCO[C@@H]1CN(C)Cc1ccncc1 was read as Ecoli rRNA inh 1, FGF22 binding inactive, Ecoli rRNA inh OD600 -11 and Ecoli rRNA inh RFP 1.4.
`C[C@H](CO)N1C[C@H](C)[C@@H](CN(C)S(=O)(=O)c2ccc(Cl)cc2)Oc2ccc(NS(=O)(=O)c3cn(C)cn3)cc2C1=O` gave Ecoli rRNA inh 0, FGF22 binding inactive, Ecoli rRNA inh OD600 12 and Ecoli rRNA inh RFP 3.7.
Screening C[C@H](CO)N1C[C@H](C)[C@H](CN(C)C(=O)NC2CCCCC2)Oc2ncc(-c3ccc(F)cc3)cc2C1=O returned Ecoli rRNA inh -8, FGF22 binding inactive, Ecoli rRNA inh OD600 -22 and Ecoli rRNA inh RFP 4.5.
For CO[C@H]1CC[C@H]2CCOc3c(C#N)cccc3C(=O)N(C)C[C@@H](C)C(=O)N(C)C[C@H]1O2 the results were Ecoli rRNA inh 4, FGF22 binding inactive, Ecoli rRNA inh OD600 14 and Ecoli rRNA inh RFP -0.7.
Screening C[C@@H]1CN([C@@H](C)CO)C(=O)c2c(c3ccccc3n2C)-c2ccccc2CO[C@@H]1CN(C)S(=O)(=O)c1cccs1 returned Ecoli rRNA inh -3, FGF22 binding inactive, Ecoli rRNA inh OD600 -1 and Ecoli rRNA inh RFP -1.5.
`COc1cccc(C(=O)Nc2ccc3c(c2)OC[C@H](C)N(C(=O)C2CCCC2)C[C@H](C)[C@@H](OC)CN(C)C3=O)c1` gave Ecoli rRNA inh -4, FGF22 binding inactive, Ecoli rRNA inh OD600 8 and Ecoli rRNA inh RFP -0.3.
For C[C@H](CO)N1C[C@H](C)[C@H](CN(C)C(=O)c2ccc(F)cc2)Oc2ncc(Br)cc2C1=O the results were Ecoli rRNA inh 4, FGF22 binding inactive, Ecoli rRNA inh OD600 15 and Ecoli rRNA inh RFP 6.9.
CO[C@H]1CN(C)C(=O)c2cc(NC(=O)c3cccc(F)c3)ccc2OC[C@@H](C)NC[C@H]1C was read as Ecoli rRNA inh 0, FGF22 binding inactive, Ecoli rRNA inh OD600 3 and Ecoli rRNA inh RFP -3.3.
For O=C(C[C@H]1C[C@H]2c3cc(NC(=O)Nc4ccc(C(F)(F)F)cc4)ccc3O[C@H]2[C@H](CO)O1)NCCc1ccccc1 the results were Ecoli rRNA inh -4, FGF22 binding inactive, Ecoli rRNA inh OD600 -4 and Ecoli rRNA inh RFP 2.3.
C[C@@H]1CCCCO[C@@H](CN(C)CC2CCCCC2)[C@H](C)CN([C@@H](C)CO)C(=O)c2cc(NC(=O)Nc3ccc4c(c3)OCO4)ccc2O1 was read as Ecoli rRNA inh -1, FGF22 binding active, Ecoli rRNA inh OD600 4 and Ecoli rRNA inh RFP -3.2.
Screening CC(C)NC(=O)N(C)C[C@@H]1Oc2ccc(NC(=O)CCCCCC(=O)Nc3ccccc3N)cc2CC(=O)N([C@@H](C)CO)C[C@H]1C returned Ecoli rRNA inh 3, FGF22 binding inactive, Ecoli rRNA inh OD600 3 and Ecoli rRNA inh RFP -1.1.
O=S(=O)(c1ccccc1F)N1CC[C@H]2[C@H](CO)Nc3ccc(-c4ccccc4F)cc3[C@H]21 was read as Ecoli rRNA inh -12, FGF22 binding inactive, Ecoli rRNA inh OD600 -53 and Ecoli rRNA inh RFP 29.
For Cc1noc(C)c1NC(=O)N(C)C[C@H]1OCc2cn(nn2)CCCC(=O)N([C@H](C)CO)C[C@@H]1C the results were Ecoli rRNA inh 0&14, FGF22 binding inactive, Ecoli rRNA inh OD600 -1&15 and Ecoli rRNA inh RFP 0.1&2.0.
Screening CO[C@@H]1CN(C)C(=O)c2ccc(NS(=O)(=O)c3ccccc3C)cc2OC[C@H](C)N(S(C)(=O)=O)C[C@H]1C returned Ecoli rRNA inh -1, FGF22 binding inactive, Ecoli rRNA inh OD600 -9 and Ecoli rRNA inh RFP -1.0.
Screening C[C@@H]1CN([C@H](C)CO)C(=O)c2cc(NC(=O)Nc3ccc(C(F)(F)F)cc3)ccc2O[C@@H](C)CCCCO[C@@H]1CN(C)S(=O)(=O)c1cn(C)cn1 returned Ecoli rRNA inh 1, FGF22 binding inactive, Ecoli rRNA inh OD600 1 and Ecoli rRNA inh RFP -3.3.
For COc1cc(CN2CC3(CN(S(=O)(=O)c4cn(C)cn4)C3)c3c(n(C)c4cc(OC)ccc34)[C@@H]2CO)cc(OC)c1 the results were Ecoli rRNA inh -3, FGF22 binding inactive, Ecoli rRNA inh OD600 -3 and Ecoli rRNA inh RFP -1.0.
`Cc1noc(C)c1S(=O)(=O)Nc1ccc2c(c1)C(=O)N([C@H](C)CO)C[C@@H](C)[C@@H](CN(C)S(=O)(=O)c1cn(C)cn1)O2` gave Ecoli rRNA inh 1, FGF22 binding inactive, Ecoli rRNA inh OD600 5 and Ecoli rRNA inh RFP -0.8.
C[C@@H]1CN([C@@H](C)CO)C(=O)c2cc(NC(=O)Cc3ccccc3)ccc2O[C@@H](C)CCCCO[C@H]1CN(C)C(=O)c1ccncc1 was read as Ecoli rRNA inh 1, FGF22 binding inactive, Ecoli rRNA inh OD600 0 and Ecoli rRNA inh RFP -2.7.
C[C@H]1CN([C@@H](C)CO)C(=O)c2cc(NC(=O)Cn3cnnn3)ccc2O[C@@H]1CN(C)Cc1ccc2c(c1)OCO2 was read as Ecoli rRNA inh 0, FGF22 binding inactive, Ecoli rRNA inh OD600 0 and Ecoli rRNA inh RFP 0.4.
COc1ccc(NC(=O)N(C)C[C@@H]2Oc3c(NC(=O)c4cnccn4)cccc3C(=O)N([C@H](C)CO)C[C@H]2C)cc1 was read as Ecoli rRNA inh 4, FGF22 binding inactive, Ecoli rRNA inh OD600 4 and Ecoli rRNA inh RFP -0.3.

Screening results deposited in PubChem by Broad Institute.
